High-throughput results (PubChem)
FEN1 inh = inhibitors of human flap endonuclease 1; AID 588795; Potency, µM (titrated, usually from 114 µM), for inactives: top-dose activity change, negative = inhibition, usual class: inhibitors; actives 0.35% (n = 390,000); Recombinant FEN1 flap cleavage, fluorescence, 15 min; note: nearly all actives have a fitted effect of over 65% in size
Target sequence (P39748 whole entry, looked up): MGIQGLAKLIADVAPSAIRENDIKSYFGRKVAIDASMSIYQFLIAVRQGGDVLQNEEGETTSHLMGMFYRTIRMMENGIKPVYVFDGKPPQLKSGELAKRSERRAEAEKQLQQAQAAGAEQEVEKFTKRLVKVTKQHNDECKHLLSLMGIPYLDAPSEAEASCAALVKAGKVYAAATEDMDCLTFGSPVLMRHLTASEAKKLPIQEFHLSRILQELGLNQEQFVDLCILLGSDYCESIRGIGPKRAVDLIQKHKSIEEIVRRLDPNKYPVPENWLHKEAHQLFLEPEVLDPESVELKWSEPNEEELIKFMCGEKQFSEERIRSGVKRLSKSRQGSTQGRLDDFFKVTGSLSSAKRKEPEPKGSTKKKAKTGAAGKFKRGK
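Concentration–response screening of FEN1 (10 nM): 15 min compound preincubation at room temperature, reaction started with 50 nM substrate and read at 0 and 15 min. Corrected, normalized data were fitted by a four-parameter Hill equation.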
DT40 TDP1 CPT = DT40-hTDP1 cell growth loss with CPT | chicken DT40 Tdp1-/-;hTDP1 cells + 20 nM CPT, ATP luminescence, 48 h | Potency, µM (doses to about 46.2 µM), without a hit: at the top dose activity change, negative = growth inhibition, hits mostly inhibitors | AID 686979 | actives 12% (n = 420,000); note: nearly all actives have a fitted effect of over 55% in size
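Chicken DT40 Tdp1-/- cells complemented with human TDP1, 400 cells/well, exposed to compounds plus 20 nM camptothecin for at least 48 h at 37 C; viability read as ATP content by CellTiter-Glo luminescence.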
The depositor's hits bear a star; ? = inconclusive; & = joins results of further samples. Calls come from the whole dose curve; as a rule, active = well fitted curve in the direction sought with a large enough effect; inconclusive = small, poorly fitted or top-dose-only effect, or another doubt; inactive = no such curve, though single readings can be large; an effect the other way counts as inactive or inconclusive. % is set by controls: 0 for no effect and ±100 for the full control effect; potency is the fitted concentration of half-maximal effect.

1	COC(=O)C1C(OC(=O)c2ccccc2)CC2CCC1N2C (stereo not given)
- FEN1 inh = 14%&0%
- DT40 TDP1 CPT = 5%&1%

2	C=CCn1cc(C=C2C(=O)NC(=O)NC2=O)c2ccccc21
- FEN1 inh = -11%
- DT40 TDP1 CPT = -28%

3	CCC1(C)Cc2ccccc2-c2c1c(=O)n(Cc1ccccc1)c1nnnn21 (stereo not given)
- FEN1 inh = -1%
- DT40 TDP1 CPT = ?

4	CCC(=Nc1ccccc1N)c1c(O)[nH]c(=O)[nH]c1=O
- FEN1 inh = -3%
- DT40 TDP1 CPT = 0%

5	O=c1cc(CN2CC=C(c3ccccc3)CC2)c2c(ccc3ccccc32)o1
- FEN1 inh = -1%
- DT40 TDP1 CPT = ?

6	CCCCn1c(O)c(C(C)=NCCN2CCCCC2)c(=O)[nH]c1=O
- FEN1 inh = -11%
- DT40 TDP1 CPT = -7%

7	CCCCn1c(O)c(C(CC)=Nc2ccc(OCC)cc2)c(=O)[nH]c1=O
- FEN1 inh = 2%
- DT40 TDP1 CPT = 18µM*

8	Fc1ccc(CNCCc2ccc3c(c2)OCO3)cc1
- FEN1 inh = 25%
- DT40 TDP1 CPT = -23%

9	CN1CCN(C(=O)Cc2nc3ccccc3[nH]2)CC1
- FEN1 inh = -5%
- DT40 TDP1 CPT = 4%

10	CNC(=O)NC(O)C(Cl)(Cl)Cl (stereo not given)
- FEN1 inh = 0%
- DT40 TDP1 CPT = -2%&2%

11	COc1ccc(C2(C#N)CCN(C)CC2)cc1
- FEN1 inh = 2%
- DT40 TDP1 CPT = -28%

12	O=C(NCc1cccnc1)NC1CCCCC1
- FEN1 inh = 10%
- DT40 TDP1 CPT = -11%

13	CC1CCN(CC(=O)c2cccc(C(F)(F)F)c2)CC1
- FEN1 inh = 11%
- DT40 TDP1 CPT = -12%

14	COc1cc2c(c(OC)c1OC)-c1ccc(O)c(=O)cc1[C@@H](N)CC2
- FEN1 inh = -8%
- DT40 TDP1 CPT = -2%

15	CCCCN1C(=O)NC(=O)C2(Cc3cc(C)ccc3N(C)C2)C1=O (stereo not given)
- FEN1 inh = 5%
- DT40 TDP1 CPT = ?

In a second layout: 2 of the compounds above
[7] CCCCn1c(O)c(C(CC)=Nc2ccc(OCC)cc2)c(=O)[nH]c1=O
[3] CCC1(C)Cc2ccccc2-c2c1c(=O)n(Cc1ccccc1)c1nnnn21 (stereo not given)

Screen / compound no.,7,3
FEN1 inh,2%,-1%
DT40 TDP1 CPT,18µM*,?

Entries of single compounds as entered above. Values in the order: FEN1 inh, DT40 TDP1 CPT
COc1ccc(C2(C#N)CCN(C)CC2)cc1 across the screens: 2%, -28%
O=C(NCc1cccnc1)NC1CCCCC1 across the screens: 10%, -11%

Continued.
Second line of a record – FEN1 inh, DT40 TDP1 CPT
(16) CCOC(=O)[C@@H]1[C@H]2COc3ccc(Br)cc3[C@@H]2N2C(=O)N(c3cccc(C)c3)C(=O)[C@]12C
    -22%, ?
(17) O=C(c1ccc2c(c1)OCO2)C1CCCN(Cc2ccccn2)C1 (stereo not given)
    -3%, -16%
(18) C=CC[N+]1(C)CC[C@]23c4c5ccc(O)c4O[C@H]2C(=O)CC[C@@]3(O)[C@H]1C5 (stereo not given in full)
    -6%, 12%
(19) Cc1cc(/C=C2/C(=O)NC(=O)N(c3ccc(Br)cc3)C2=O)c(C)n1C
    2%, 3%
(20) COc1cccc(-n2c(C)nc3ccccc3c2=O)c1
    4%, -29%
(21) O=c1[nH]c(O)c(N=Nc2ccc(SC(F)F)cc2)c(=O)[nH]1
    3%, -7%

Entries by screen from the list.
DT40 TDP1 CPT for entries 16 to 21, in order: ?, -16%, 12%, 3%, -29%, -7%

Three of the compounds above, as tab-separated lines.
no.	Structure	FEN1 inh	DT40 TDP1 CPT
16	CCOC(=O)[C@@H]1[C@H]2COc3ccc(Br)cc3[C@@H]2N2C(=O)N(c3cccc(C)c3)C(=O)[C@]12C	-22%	?
17	O=C(c1ccc2c(c1)OCO2)C1CCCN(Cc2ccccn2)C1 (stereo not given)	-3%	-16%
18	C=CC[N+]1(C)CC[C@]23c4c5ccc(O)c4O[C@H]2C(=O)CC[C@@]3(O)[C@H]1C5 (stereo not given in full)	-6%	12%

Only part of the results is shown, and most or all hits are left out here.
